Compound activity deposited in PubChem by Fisher Drug Discovery Resource Center.
NPYLR7 agonist: activates Aedes aegypti NPYLR7 receptor; 0.15% of 270,000 active; HEK293T NPYLR7/Galpha15, GCaMP6s calcium fluorescence; activation, % at 10 µM; in the data active = activation above about 40%;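 also: 0% = vehicle and 100% = reference agonist at the receptor; some compounds past the cut are filed as inactive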
NPYLR7 agonist max-min: recorded beside NPYLR7 agonist, whose call it bears; activation, %; measured here: Max-Min RFU normalised activation; some inactives read as strong as hits;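 span of the calcium signal over five minutes; 0% = vehicle and 100% = native peptide agonist; compound fluorescence can raise it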
* marks the source's active call; other numbers are inactive results; & = joins results of further samples. Only part of the results is shown; the hit share may differ from the screen's.

Start of the data: the first seven entries, to show the layout:
SMILES | NPYLR7 agonist | NPYLR7 agonist max-min
CCOc1cn(C)c(C(=O)NCc2ccccc2Cl)cc1=O | 8 | 8
Cc1ccccc1C1(CC(=O)N2CCCN(c3ncccn3)CC2)CC(=O)N(Cc2ccccc2)C1=O (stereo not drawn) | 12 | 0
Cc1c(C(=O)N2CCC(O)(CN(C)C)C2)n(C)c2c(C)cccc12 (stereo not drawn) | 4 | 0
CCn1nnc2c(N3CCN(S(=O)(=O)c4cccs4)CC3)ncnc21 | 1 | 2
CC(NS(=O)(=O)c1ccc(F)c(F)c1)C12CC3CC(CC(C3)C1)C2 (stereo not drawn) | 12 | 8
COc1ccc(-n2ncc3c2CCN(C(=O)C2CC(=O)OC2(C)C)C3)cc1 (stereo not drawn) | 1 | 26
Cc1ccc(C(=O)N(Cc2ccco2)Cc2nccn2Cc2ccc(C(F)(F)F)cc2)cc1 | 15 | 24

This part in full (from the top)
SMILES | NPYLR7 agonist | NPYLR7 agonist max-min
CCOc1cn(C)c(C(=O)NCc2ccccc2Cl)cc1=O | 8 | 8
Cc1ccccc1C1(CC(=O)N2CCCN(c3ncccn3)CC2)CC(=O)N(Cc2ccccc2)C1=O (stereo not drawn) | 12 | 0
Cc1c(C(=O)N2CCC(O)(CN(C)C)C2)n(C)c2c(C)cccc12 (stereo not drawn) | 4 | 0
CCn1nnc2c(N3CCN(S(=O)(=O)c4cccs4)CC3)ncnc21 | 1 | 2
CC(NS(=O)(=O)c1ccc(F)c(F)c1)C12CC3CC(CC(C3)C1)C2 (stereo not drawn) | 12 | 8
COc1ccc(-n2ncc3c2CCN(C(=O)C2CC(=O)OC2(C)C)C3)cc1 (stereo not drawn) | 1 | 26
Cc1ccc(C(=O)N(Cc2ccco2)Cc2nccn2Cc2ccc(C(F)(F)F)cc2)cc1 | 15 | 24
Cc1ccc(S(=O)(=O)Nc2ccc(Nc3cnc(-c4ccc5ccccc5c4)cn3)cc2)cc1 | 1 | -1
O=C(c1csc(Cc2ccccc2)n1)N1Cc2cnn(CCO)c2C1 | 7 | 4
Cc1cc2cc(CNC(=O)CCCC(=O)O)ccc2n1C | 9 | 7
Cc1c(C)n2c3c(=O)n(CCc4ccccc4)c(=O)n(C)c3nc2n1CCCO | -2 | 16
O=C(O)C1C2C=CC(C2=C(c2ccccc2)c2ccccc2)C1C(=O)Nc1ccccn1 (stereo not drawn) | 5 | 4
O=C(Cc1ccc(OC(F)(F)F)cc1)Nc1ccnc2ccncc12 | 10 | 8
Fc1ccccc1Nc1nc2nonc2n2nnnc12 | 9 | 7
CCOC(=O)CNC(=O)N1CCN(c2cc(Oc3cc(C)ccc3Cl)ncn2)CC1C (stereo not drawn) | -8 | -5
COc1ccc(CNCc2ccccc2Cn2cccn2)c(Cl)c1 | -1 | -4
CCOC(=O)c1nn(-c2ccccc2)c(=O)cc1OCC(=O)Nc1cc(C)ccc1OC | 8 | 5
Cc1cnc(-c2nccn2CCC(=O)Nc2ccc(F)c(C)c2)[nH]1 | 5 | -4
O=C(c1ccccc1)N(Cc1ccccn1)c1nc2c(F)cc(F)cc2s1 | 2 | -4
O=C1CCc2cc(OCC(=O)N3CCC(n4cccc4)CC3)ccc2N1 | 0 | 1
CCOc1ccccc1OC1CCCC1NC(=O)c1cnc(C(C)C)[nH]1 (stereo not drawn) | -1 | -6
O=C(NCCn1ncc2c(N3CCCCCC3)ncnc21)C1COc2ccccc2O1 (stereo not drawn) | 2 | 0
NC(=O)c1cnc2n1CCN(C(=O)Cc1cccs1)C2 | -3 | -4
Cc1cc(C)cc(C(O)c2ncc(-c3ccccc3C(F)(F)F)[nH]2)c1 (stereo not drawn) | -1 | -4
CCOc1ccc(NC(=O)N(Cc2ccc(OS(=O)(=O)c3cccc(C(F)(F)F)c3)cc2)C(C)C)cc1 | -3 | 7
COc1ccc(CCN(C)C(=O)c2cc(C)n3nc(-c4ccccc4)cc3n2)cc1OC | 2 | 7
Cc1nc(-c2cccnc2)ncc1C(=O)N1CCC2(CCNCC2)CC1 | 10 | 10
Cc1nn(C)c(C)c1S(=O)(=O)N1CCCC2(C1)C(=O)Nc1ccccc12 (stereo not drawn) | -4 | -6
Cn1c(=O)[nH]c(=O)c2c1nc(N1CCN(Cc3ccc(Cl)cc3)CC1)n2Cc1ccc(Cl)cc1 | 2 | 0
CCc1ccc(NC(=O)CSc2nc(=O)n(CCN(C)C)c3c2CCC3)cc1 | 1 | -2
Cc1c(C(=O)N2CC=CCC2)cnc2c(-c3c(F)cccc3Cl)cnn12 | 29 | 36
O=C(c1cnc(-c2ccccc2Cl)s1)N(CC1CCOC1)C1CC1 (stereo not drawn) | 2 | 0
CC(C)NCc1ccc(-c2cccc(F)c2)s1 | -3 | -8
O=C(c1cc(Cl)sc1Cl)N1CC(=O)N2CCc3ccc(F)cc3C2C1 (stereo not drawn) | -11 | -6
CNCC(=O)NC(c1cc(C)ccn1)C1CC1 (stereo not drawn) | 4 | -12
Cc1ccc(CN(Cc2ccco2)CC(O)COCc2ccco2)o1 (stereo not drawn) | 26 | 36
COCCN(Cc1ccco1)CC(O)COc1ccc(Cl)cc1 (stereo not drawn) | 7 | 19
CC(NC(=O)CSC1=Nc2cccc3cccc(c23)N1)c1cccs1 (stereo not drawn) | 9&7 | 12&4
CCOC(=O)C1CCN(C(=O)c2ccc(CSc3nc(C)c(C)c(N4CCN(c5cccc(C(F)(F)F)c5)CC4)n3)cc2)CC1 | 4 | 13
CCCc1nnc2sc(CN3C(=O)c4ccccc4C3=O)nn12 | 0 | -1
Cn1c(=O)[nH]c(=O)c2c1nc(NCCc1ccccc1)n2CCCc1ccccc1 | 12 | 0
Cc1nc(C(C)C)sc1C(=O)N(C)Cc1nc(-c2ccccn2)no1 | 27 | 10
CC(=O)Nc1ccc(C(=O)Nc2ccc3nc(Cc4ccccc4)nn3c2)cc1 | 27 | 18
CC(=O)NC(c1nc(CC2CCN(C)CC2)no1)C(C)C (stereo not drawn) | 8 | 0
Cc1cc(F)ccc1C(O)c1ncc(-c2ccccc2)[nH]1 (stereo not drawn) | -1 | -1
Cc1ccc(S(=O)(=O)c2nc(S(C)(=O)=O)sc2N2CC(C)OC(C)C2)cc1 (stereo not drawn) | 13 | 9
C=CCNC(=O)Cn1cc(OC)c(=O)cc1CN1CCC(C)CC1 | 5 | 5
Cc1cc2oc(=O)cc(-c3oc4ccccc4c3NC(=O)C3CC3)c2cc1C | 0 | -3
COc1cccc(OC)c1C(=O)N1CCC2(CC1)OCC(C(=O)NCc1ccccn1)N2C(=O)c1ccc(C)cc1 (stereo not drawn) | 0 | 1
O=C(CCc1cccs1)NCC1CCCN1c1cccnn1 (stereo not drawn) | 1 | -1
CC(=O)Nc1ccc(S(=O)(=O)NCC(c2ccsc2)N2CCCCCC2)cc1 (stereo not drawn) | -7 | -6
CC(O)c1nc2ccccc2s1 (stereo not drawn) | -2 | -4
O=C(Nc1ccon1)NC1CC(=O)N(c2ccc(F)cc2)C1 (stereo not drawn) | 3 | -1
NC(=O)C1CN(c2nc(C3CCCC3)nc3c2CNC3)CCO1 (stereo not drawn) | 3 | 1
COCCCN(CC(=O)N(Cc1ccc2c(c1)OCO2)Cc1cccs1)C(=O)Nc1c(Cl)cccc1Cl | 8 | 13
O=S1(=O)CCC(N(Cc2ccccc2)Cc2cc3c(cc2O)OCO3)C1 (stereo not drawn) | 3 | 1
Nn1ccc2nc3ccn(-c4ccccc4)c(=O)c3cc2c1=O | -1 | -1
CC1(C)CC(=O)c2cnn(-c3nc4ccccc4s3)c2C1 | -10 | -20
Cc1cc(C)cc(NC(=O)Cn2c(-n3nc(C)cc3C)nc(-c3ccccc3)cc2=O)c1 | -1 | 5
C=CCCC(O)CN(CCN1CCOCC1)Cc1ccc(C)o1 (stereo not drawn) | 29 | 33
(cont.)
SMILES | NPYLR7 agonist | NPYLR7 agonist max-min
CC(C)n1ncc2cc(C(=O)NN3C(=O)NC4(CCCCC4)C3=O)cnc21 | 11 | 7
COc1ccc(C(=O)N=Nc2c(O)n(CN3CCCCCC3)c3ccccc23)cc1OC | 6 | 4
O=C(c1ccc(-c2ccn[nH]2)nc1)N1CCC(Cn2cccn2)CC1 | -2 | -5
CC(=O)NCC1CCN(Cc2cccc(-c3ccc(C)o3)c2)C1 (stereo not drawn) | 4 | 2
Cc1nc2ncc3c(=O)n(Cc4ccccn4)ccc3n2n1 | 6 | 13
CN1CC2(CCN(C(=O)c3ccc(Cn4ccnc4)o3)C2)OC1=O (stereo not drawn) | 26 | 19
O=C1C[C@H]2CC[C@@H](CN1)N2C(=O)Cn1cnc2ccsc2c1=O | -1 | -1
Cc1ccc2oc(CN(Cc3ccncc3)C(=O)C(C)Oc3ccccc3)nc2c1 (stereo not drawn) | 3 | -3
Oc1oc(-c2cccc3ccccc23)nc1C=Nc1cc(Cl)ccc1Cl | 1 | -4
CC(C)Cc1noc(CN(C)C(=O)C2CC3(CCNCC3)CN2)n1 (stereo not drawn) | 19 | 9
CC(C)c1ncc(C(=O)NCc2ccon2)[nH]1 | -1 | -8
COc1ccccc1N1CCN(C(=O)c2cc3ccsc3n2Cc2ccccc2C)CC1 | -13 | -4
CCCN1CCC(Cc2noc(-c3cccc4nccnc34)n2)CC1 | 3 | 13
COC(=O)N1CCC(NC(=O)NC2CCC3CCCCC3C2)CC1 (stereo not drawn) | 13 | 12
Cc1c(S(=O)(=O)CCNC(=O)NC(C)(C)C)c2ccccc2n1C | 8 | 12
CCOC(=O)c1sc(N)c(C#N)c1CSCc1ccccc1 | -11 | -9
Cc1ccc2nc(CSc3nnc(C(F)(F)F)n3C)cc(=O)n2c1 | 0 | 6
Cc1cccc(-n2c(CNC(=O)c3ccc(S(=O)(=O)N4CCCC4)cc3)nnc2SCC(=O)Nc2nccs2)c1 | 10 | 15
O=C(c1ccc(F)cc1)N(Cc1nccn1Cc1cccc(C(F)(F)F)c1)CC1CC1 | -3 | 2
Fc1ccc(C=NNc2ccc(C(F)(F)F)cn2)cc1 | 8 | 4
COc1cc(NCCC(=O)Nc2ccccc2OC)ncn1 | -1 | -9
CC(=O)c1ccc(C(=O)N(C)C(C)c2ccc(Cl)cc2)s1 (stereo not drawn) | 6 | 4
COc1ccc(-c2noc(COc3cccnc3N)n2)cc1 | 5 | 4
CC(C)c1c(C(=O)O)cnn1-c1cccc(F)c1 | -8 | -15
COCCN(Cc1cnn(C)c1)C(=O)c1cncc(C)c1 | -1 | 29
CC(C)C1CCN(Cc2cn(C3CCN(C(=O)NC(C)(C)C)CC3)nn2)CC1 | -3 | -4
CC1=C(C(=O)Nc2ccc(C)cc2)C(c2cccc(Cl)c2)NC(=O)N1 (stereo not drawn) | 0 | 2
CN(C)c1ccc2c(c1)OCCN2Cc1cccc(C(N)=O)c1 | 0 | 0
Clc1ccc(-c2cn3cc(Br)ccc3n2)cc1 | 1 | 83
c1ccc(-c2noc(CCCc3c[nH]c4ccccc34)n2)cc1 | -6 | -9
COC(=O)C(Cc1ccccc1)n1c(C)cc(C(=O)NS(=O)(=O)c2ccc(C)cc2)c1C (stereo not drawn) | 18 | 32
COc1cccc(C(=O)Nc2nc3ncccc3cc2-c2ccccc2)c1 | 2 | 8
COc1cccc(C(=O)N2CCC(CCC(=O)N3CCC(Cc4ccccc4)CC3)CC2)c1 | 2 | -5
CC1(C)CNC(=O)c2nc(C3CCCN(C(=O)C4CC4)C3)[nH]c2C1 (stereo not drawn) | 1 | -4
Cc1nc(N)nc2c1CCO2 | 2 | 2
COCCN(CC(=O)N(CCc1c[nH]c2ccccc12)Cc1ccc(C)cc1)C(=O)Nc1ccccc1Br | 2 | -7
CC(C)(C)c1ccc(SCc2csc(-c3ccc(Cl)cc3)n2)cc1 | 2 | 0
Cc1nc(-n2cnnc2)ccc1-c1cccc2c1CCNC2 | 5 | 1
Cc1cc(N2CC(c3nc4ncccc4c(=O)[nH]3)CC2=O)ccc1Br (stereo not drawn) | 5 | 2
COc1cccc(-c2cnc3c(NC(C)=O)cc(-c4ccncc4)cn23)c1 | -8 | -11
COc1cc(-c2nc(C=Nc3cccc(C)n3)c(O)o2)cc(OC)c1OC | 8 | 6
CCc1ccccc1NC(=O)CN1c2ccc(S(N)(=O)=O)cc2CC1C (stereo not drawn) | 2 | 3
CCOC(=O)c1nc2ccccc2nc1N1CCCN(C(=O)c2ccc3c(c2)OCO3)CC1 | 15 | 21
Cc1ccc(C2c3ccsc3CCN2CC(=O)N2CCN(C(=O)c3ccc([N+](=O)[O-])cc3)C(C)C2)cc1 (stereo not drawn) | 7 | -1
Cc1nn(Cc2ccccc2)c(C)c1C(=O)N(C)Cc1cccs1 | -3 | -7
CCc1nc(C)c(C(=O)NCCCc2nc3ccc(C)cc3o2)o1 | -5 | -9
N#Cc1ccc(N2CCCN(C(=O)CC3CCCO3)CC2)cc1 (stereo not drawn) | 6 | 3
COCC(=O)Nc1ccc(Sc2nc(C)cc(C)n2)cc1 | -2 | -3
O=C1/C(=C/c2ccccc2F)SC(=S)N1CCS(=O)(=O)O | -11 | -16
Cc1cc([N+](=O)[O-])ccc1-c1ccc(C=C2C(=O)NC(=S)NC2=O)o1 | 0 | -8
OC(Cc1ccccc1)c1ccc2c(c1)CN(CC#Cc1ccccc1)CCO2 (stereo not drawn) | 17 | 4
CCc1nn(C)c(NC(=O)c2ccc(CN3CCC(NC(C)=O)C3)cc2)c1C (stereo not drawn) | 13 | -3

Reprinted at random: four entries already listed.
SMILES | NPYLR7 agonist | NPYLR7 agonist max-min
COc1ccc(-n2ncc3c2CCN(C(=O)C2CC(=O)OC2(C)C)C3)cc1 (stereo not drawn) | 1 | 26
COCCN(Cc1cnn(C)c1)C(=O)c1cncc(C)c1 | -1 | 29
Cc1ccc(CN(Cc2ccco2)CC(O)COCc2ccco2)o1 (stereo not drawn) | 26 | 36
O=C(c1ccc(-c2ccn[nH]2)nc1)N1CCC(Cn2cccn2)CC1 | -2 | -5
